Vaccinia mCherry = vaccinia inhibition (mCherry reporter). Vaccinia virus mCherry reporter infection, fluorescence; about a quarter of the inactives have no number. AID 720579. Potency, µM (doses to about 36.5 µM), inactives show at the top dose activity change, negative = inhibition, hits mostly inhibitors. actives 0.63% (n = 310,000); active = well fitted inhibition curve with a large enough effect; inconclusive = small, poorly fitted or top-dose-only effect; inactive = no such curve, though single readings can be large or run the other way; tested in A549 cells; also: nearly all actives have a fitted effect of over 35% in size; inactives centre near -10
Vaccinia Venus = vaccinia inhibition (Venus reporter); Potency, µM (top dose mostly 36.5 µM), without a hit: at the highest dose activity change, negative = inhibition, hits mostly inhibitors; Vaccinia virus Venus reporter expression, fluorescence; actives 0.46% (n = 330,000); active means well fitted inhibition curve with a large enough effect; inconclusive means small, poorly fitted or top-dose-only effect; inactive means no such curve, though single readings can be large or run the other way; tested in A549 cells; also: nearly all actives have a fitted effect of over 30% in size; inactives centre near -10
* hit, by the source's call; i = inactive; u = inconclusive; x = no result given; & = joins results of further samples; [ ] = remark or other dose. % is scaled to controls: 0 for no effect and ±100 for the full control effect; potency is read from the fitted curve at half-maximal effect.

The line under a structure holds: Vaccinia mCherry, Vaccinia Venus
> O=C1Nc2ccccc2-n2nnnc2C1N1CCN(c2ccc(F)cc2)CC1 (centres undefined)
→ -13%, -8%
> CCN(CC)S(=O)(=O)c1ccc(N2CCCC2)c(NS(=O)(=O)c2cccs2)c1
→ -5%, -6%
> CCc1nnc(NS(=O)(=O)c2ccc(N=Cc3c(C)[nH]n(-c4ccc(C)c(C)c4)c3=O)cc2)s1
→ -11%, -1%
> FC(F)(F)c1cc(-c2ccccc2)nc2cc(-c3ccc(Br)cc3)nn12
→ 14%, 7%
> CCc1nc2ccc(C(=O)Nc3cccc(OC)c3)cn2c1N(C)CCCc1ccccc1
→ 23%, 0%
> CCCn1c(N)c(Sc2ccccc2[N+](=O)[O-])c(=O)n(CCC)c1=O
→ -8%, -7%
> N#CCC(=O)Nc1ccc(C(=O)OCC(=O)Nc2ccccc2Sc2ccccc2)cc1
→ -21%, -4%
> CC(NC(=O)Cc1ccc(S(=O)(=O)N2CCOCC2)s1)c1ccc(Cl)c(Cl)c1 (centres undefined)
→ -17%, -26%
> CC(NC(=O)c1ccc(C#N)cc1)C1CC2CCC1C2 (centres undefined)
→ -9%, 2%
> COc1ccccc1NC(=O)C(Cc1ccccc1)NS(=O)(=O)c1ccc2c(c1)CCN2C(C)=O (centres undefined)
→ -8%, -9%
> CC(=O)Nc1ccc(Nc2ncnc3c2cnn3C)cc1
→ 4%, 12%
> C(#Cc1ccccc1)Cn1nnc2ccccc21
→ i, -3%
> COc1ccc(C(O)c2nc(-c3ccc(F)c(Cl)c3)cs2)cc1 (centres undefined)
→ 42%[activator], -4%
> Cc1ccc(/C=C/C(=O)O)cc1S(=O)(=O)N(C)CCO
→ -13%, -17%
> COc1ccc(Cc2nc3c4c(ncn3n2)Oc2c(ccc3ccccc23)C4c2ccc(OC)c(OC)c2)cc1 (centres undefined)
→ i, -9%
> CCCCN(C)Cc1c(C)[nH]c2ccc(Cl)cc2c1=O
→ i, -3%
> O=C(COC(=O)/C=C/c1ccccc1[N+](=O)[O-])NNC(=O)c1ccc(F)cc1
→ -15%, -14%
> Cc1ccc(-c2c[n+](CC(=O)Nc3nc(-c4ccccc4)cs3)c3n2CCC3)cc1
→ -12%[7.34 µM], -4%[7.34 µM]
> COc1ccc(NC(=O)C2=CC(c3ccc(OC)cc3)=NS(=O)(=O)N2C)cc1
→ i, -9%
> COc1ccc(NC(=O)N(C)C[C@H]2Oc3c(NC(=O)c4nc5ccccc5s4)cccc3C(=O)N([C@@H](C)CO)C[C@H]2C)cc1
→ -10%, u

Part of the list above, reformatted:
| compound | Vaccinia mCherry | Vaccinia Venus |
| --- | --- | --- |
| CCCn1c(N)c(Sc2ccccc2[N+](=O)[O-])c(=O)n(CCC)c1=O | -8% | -7% |
| N#CCC(=O)Nc1ccc(C(=O)OCC(=O)Nc2ccccc2Sc2ccccc2)cc1 | -21% | -4% |
| CC(NC(=O)Cc1ccc(S(=O)(=O)N2CCOCC2)s1)c1ccc(Cl)c(Cl)c1 (centres undefined) | -17% | -26% |
| CC(NC(=O)c1ccc(C#N)cc1)C1CC2CCC1C2 (centres undefined) | -9% | 2% |
| COc1ccccc1NC(=O)C(Cc1ccccc1)NS(=O)(=O)c1ccc2c(c1)CCN2C(C)=O (centres undefined) | -8% | -9% |
| CC(=O)Nc1ccc(Nc2ncnc3c2cnn3C)cc1 | 4% | 12% |

Next part:
The line under a structure holds: Vaccinia mCherry, Vaccinia Venus
> CCc1ccc(NC(=O)c2ccc(CNS(=O)(=O)c3ccc4c(c3)C(C)(C)C(=O)N4C)cc2)cc1
→ -15%, -14%
> c1cc(-c2ccoc2)n2ccnc2c1
→ 3%, 6%
> O=C(O)CSC(C(=O)Nc1ccc(Br)cc1)c1ccccc1 (centres undefined)
→ -17%, -4%
> CC(C)c1ccc(CNc2nc(-c3ccco3)nn2S(=O)(=O)c2ccc3ccccc3c2)cc1
→ -13%[7.34 µM], -12%[7.34 µM]
> O=c1[nH]c2ccccc2n1C1CCN(C(c2cccs2)c2nnnn2-c2ccc3c(c2)OCCO3)CC1 (centres undefined)
→ u, u
> COC(=O)c1cn(C(=O)c2ccc(C)cc2C)c2ccccc12
→ u, u
> CCCCCC(=O)Nc1ccc(N2CCOCC2)c(S(=O)(=O)Nc2ccc(OC)cc2)c1
→ u, 0%
> Cc1ccc(NS(=O)(=O)c2ccc(NC(=O)c3ccccc3C(=O)O)cc2)c(C)c1
→ i, 12%
> Cc1ccccc1NC(=O)CSc1nnc(C)c(=O)[nH]1
→ 0%&-17%, -8%&-1%
> CC1=NNC(=O)C1C(c1ccc(Cl)cc1)C(C#N)C#N (centres undefined)
→ -4%, -1%
> CC(=O)c1cccc(NC(=O)c2cccn2-c2nnc(N3CCCCC3)s2)c1
→ -4%, -6%
> COc1cccc(C(=O)OCC(=O)NCC2CCCO2)c1 (centres undefined)
→ i, -3%
> CCOC(=O)N/N=C/c1ccc(N(CC)CC)cc1O
→ u, u
> O=C(COc1ccc(/C=N/NC(=O)c2ccc(O)cc2)cc1)Nc1cccc([N+](=O)[O-])c1
→ i, u
> COc1ccc2cc(CN(CC3CCCO3)S(=O)(=O)c3ccccc3Cl)c(=O)[nH]c2c1 (centres undefined)
→ -22%, -20%
> C=C1CCN(C(Cc2ccccc2)C(=O)OC)S(=O)(=O)c2ccc(F)cc21 (centres undefined)
→ -2%, -12%
> CCN1CCN(S(=O)(=O)c2c[nH]c(C(=O)OC)c2)CC1
→ i, -6%
> N#C/C(=C\c1ccc(-c2ccc(Br)cc2)o1)C(=O)Nc1ccccc1O
→ -9%, -2%
> CCN(CC1CCCN(CCc2cccc(OC)c2)C1)C(=O)c1ccoc1 (centres undefined)
→ i, -10%
> COc1ccccc1NC(=O)c1ccc(Cl)c(S(=O)(=O)N2CCCCC2)c1
→ -27%, -20%

(more compounds)
The line under a structure holds: Vaccinia mCherry, Vaccinia Venus
> Cc1cccc(Cn2c(SCCO)nc3c2c(=O)n(C)c(=O)n3C)c1
→ x, -28%
> O=C(c1ccc(O)cc1)c1ccc(O)cc1O
→ 4%, 1%
> COc1ccccc1-c1noc2ncnc(Nc3ccccc3C)c12
→ i, -15%
> O=C1N(c2nncs2)CCN1[N+](=O)[O-]
→ i, -14%
> CSc1cccc(NC(=S)Nc2ccc(F)cc2)c1
→ -12%, 6%
> COc1cccc(-n2cnc3sc(C)cc3c2=O)c1
→ 3%, 3%
> Cc1cc(OCC(=O)Nc2cc(S(=O)(=O)N3CCOCC3)ccc2N2CCCC2)ccc1C(C)C
→ -4%, -6%
> CCn1cc(/C=c2/sc3n(c2=O)C2c4ccccc4OC(C)(N=3)C2C(=O)OC)c(C)n1 (centres undefined)
→ i, -18%
> COc1ccc(O)c(-c2cc(C(F)(F)C(F)F)nc(-c3ccccc3)n2)c1
→ x, -9%
> CCC(C)(C)c1ccc(Oc2ccc(N)cc2)cc1
→ -18%, u
> CCOC(=O)C1=C(O)C(=O)NC(c2ccccc2)=C(OC2CCCCC2)C1
→ -6%, -8%
> CCOC(=O)Cn1c(=O)n(-c2ccccc2OC)c2nc(-c3cccc(F)c3)nc(C(N)=O)c21
→ -12%, -7%
> O=C1NC(=O)C(Cc2ccc(O)cc2)N1 (centres undefined)
→ 8%, 14%
> Cn1c(N)c(C(=O)COC(=O)c2ccc([N+](=O)[O-])o2)c(=O)n(C)c1=O
→ u, u
> CCN(CC)C(=O)C1=C(C)N(CCCN2CCCC2=O)C(=O)C(CC(=O)NCCCCc2ccccc2)C1 (centres undefined)
→ -20%, -25%
> CCn1ccc2cc(S(=O)(=O)N3CCC(C(=O)NCCc4ccccc4Cl)CC3)ccc21
→ -21%, -15%
> O=C(CNC(=O)C(c1ccccc1)c1ccccc1)OCC(=O)c1ccc2ccccc2c1
→ 5%, -9%
> NC(=O)C1CCCN(C(=S)Nc2cccc3ccccc23)C1 (centres undefined)
→ -18%, -6%
> COc1cc(CCCN2C(=S)NC[C@@H]2c2ccccc2)cc(OC)c1OC
→ i, -16%
> O=C(c1ccc(Cl)cc1)N1CCN(C(=O)c2ccco2)CC1
→ x, -10%

Going on with the list.
The line under a structure holds: Vaccinia mCherry, Vaccinia Venus
> Cc1onc(-c2ccccc2Cl)c1C(=O)Nc1ccccc1C(N)=O
→ x, -15%
> COc1ccc(-c2c[n+]3c(n2-c2c(C)n(C)n(-c4ccccc4)c2=O)CCCCC3)cc1
→ 0%, -7%
> Cc1ccc(-c2nn(-c3ccccc3)cc2C(=O)N2CCOCC2)cc1C
→ i, -9%
> O=C(COc1ccccc1Cl)N1CCN(C(=O)c2ccco2)CC1
→ -9%, -5%
> COCCNC(=O)C1(C)CCCN(C(=O)c2ccc3ccccc3c2)C1 (centres undefined)
→ -2%, 8%
> COCC(=O)N1CCN(c2ccc([N+](=O)[O-])cc2)CC1
→ x, -23%
> COc1ccc(OC)c(NC(=O)N2CCCC(CNS(=O)(=O)c3cccs3)C2)c1 (centres undefined)
→ -17%, -20%
> CCSc1nc(N2CCOCC2)c2c(c1C#N)CC(C)(C)N(C)C2
→ x, -9%
> O=C(NC1CCCC1)C1CCN(S(=O)(=O)c2ccccc2)CC1
→ -5%, 16%
> O=C(N/N=C/c1ccccn1)c1c[nH]c2ccccc12
→ -27%, -18%
> CCCC(=O)NCCc1cc2cc(C)c(C)cc2[nH]c1=O
→ -23%, -14%
> OCc1ccccc1-c1cnc2sc(NCc3ccc(F)cc3)nn12
→ -28%, -21%
> Nc1cc(N)cc(N)c1
→ i, -15%
> CC1CN(C(=O)COC(=O)c2ccc(C#N)cc2)CC(C)O1 (centres undefined)
→ -7%, -1%
> CC(C)(C)c1ccc(C(=O)OCC(=O)NC2CC2)cc1
→ u, -7%
> COc1ccccc1N1CCN(C(=O)c2c(-c3c(F)cccc3Cl)noc2C)CC1
→ -10%, -22%
> CCN(C(=O)COC(=O)CNS(=O)(=O)c1ccccc1)c1ccccc1
→ 8%, 6%
> Cc1cccc(NC(=O)CSc2nnc(C)c(=O)n2N)c1C
→ -14%, -5%
> COc1ccc(C)cc1NC(=O)CN1C(=O)COc2ccc(S(=O)(=O)N3CCOCC3)cc21
→ 0%, -2%
> Cc1ccc2nc(-c3ccccc3F)c(Nc3ccc(Cl)cc3)n2c1
→ -15%, -20%

Full records, looked up by structure. Order of screens: Vaccinia mCherry, Vaccinia Venus
CCCC(=O)NCCc1cc2cc(C)c(C)cc2[nH]c1=O reads -23%, -14%
COc1ccccc1N1CCN(C(=O)c2c(-c3c(F)cccc3Cl)noc2C)CC1 reads -10%, -22%

The list goes on.
The line under a structure holds: Vaccinia mCherry, Vaccinia Venus
> CCC(=O)N1CCc2cc(S(=O)(=O)CCC(=O)NCc3ccc(C)cc3)ccc21
→ -3%, -6%
> Cc1cc(C)c(C#N)c(N2CCN(Cc3ccc4c(c3)OCO4)CC2)n1
→ i, -15%
> COc1ccc(C)cc1N(C)C(=O)Cc1c(C(=O)O)n(C)c2ccccc12
→ -13%, 1%
> COC(=O)c1c(NC(=O)c2c(OC)cccc2OC)sc2c1CCCC2
→ u, -21%
> CCn1c(=NC(=O)CN2C(=O)CCC2=O)sc2c(C)cc(C)cc21
→ -6%, -11%
> CCc1ccc(Nc2nnc(SC3CCOC3=O)s2)cc1 (centres undefined)
→ -10%, 1%
> COc1ccc(Cl)cc1NC(=O)CCn1cnc2ccccc2c1=O
→ x, -25%
> Cc1ccccc1OCC(=O)Nc1cccc(NC(=O)c2ccco2)c1
→ -9%, -26%
> CC1=C/C(=C/N(C)C)C(=O)O1
→ -25%, u
> O=C(Nc1ccccc1)c1nnsc1S(=O)(=O)c1ccc(Cl)cc1
→ x, u
> COc1ccc2cc(C(=O)NC3CCCCC3)c(=O)oc2c1
→ i, 0%
> COC(=O)CCCC1=CC2=CC(=O)C(C)(OC(=O)c3cccs3)C(=O)C2=CN1CCCOC(C)C (centres undefined)
→ 15%, 0%
> Cc1nn(-c2ccccc2)c2[nH]c(=O)c(CNCc3ccc4c(c3)OCO4)cc12
→ -11%, 4%
> C/C(=N\NC(=O)c1cc(C)nc2ccccc12)c1ccco1
→ 7%, -9%
> COc1cccc(CNc2nc3nc(C)cc(C)n3n2)c1
→ i, -5%
> COC(=O)[C@H](CC(C)C)NC(=O)Cn1cnc(C(=O)Nc2ccc(C)c(C)c2)n1
→ i, -4%
> Cc1ccc(Cl)c(OC(=O)c2ccc(N3CCOCC3)c([N+](=O)[O-])c2)c1
→ -10%, 4%
> Cc1cc(C)c(-n2c(O)c(/C=N/N3CCCCC3c3cccnc3)c(=O)[nH]c2=O)c(C)c1 (centres undefined)
→ -2%, -14%
> O=C(c1cc(COc2cccc(C(F)(F)F)c2)on1)N1CCSCC1
→ i, -19%
> Cc1sc2ncn(CC(=O)N3CCN(c4ccccc4F)CC3)c(=O)c2c1S(=O)(=O)N1CCC(C)CC1
→ -11%, -7%

Remaining list, next part.
The line under a structure holds: Vaccinia mCherry, Vaccinia Venus
> Cc1nc2c(C(=O)NCc3ccc4c(c3)OCO4)c[nH]n2c(=O)c1Cl
→ -9%, -8%
> CCCCn1c(N)c(N(CC(C)C)C(=O)CN(C)S(=O)(=O)c2ccc(F)cc2)c(=O)[nH]c1=O
→ -13%, -6%
> CCCCC(CC)CNC(=O)c1ncn[nH]1 (centres undefined)
→ -24%, -8%
> CC(C)(C)C(=O)Nc1cccc(OC(F)(F)C(F)Cl)c1 (centres undefined)
→ -11%, -3%
> CC1CCCCN1C(=O)CSc1nc(C2CC2)nc2ccccc12 (centres undefined)
→ -15%, -4%
> COCCN(C(=O)COC(=O)Cc1coc2cc3c(cc12)CCC3)c1c(N)n(Cc2ccccc2)c(=O)[nH]c1=O
→ -16%, -11%
> CCOc1ccc(S(=O)(=O)N(C(C)=O)c2ccc3oc(C)c(C(=O)OC)c3c2)cc1
→ u, u
> CC(C)CSc1nnc2c3ccccc3n(C)c2n1
→ -12%, -14%
> O=C(COc1ccccc1)NCC(=O)Nc1ccc(S(=O)(=O)NCc2ccco2)cc1
→ x, -17%
